Lassa entry inh: blocks Lassa virus binding to or entry into cells; hit rate 1.2% among 300,000; Lassa virus pseudotype entry inhibition, cell reporter; control for the full effect not named in the record; AID 540256; Potency, µM (series often up to 37.9 µM), for inactives: at the top dose activity change, negative = inhibition, usual class: inhibitors; active means well fitted inhibition curve with a large enough effect; inconclusive means small, poorly fitted or top-dose-only effect, or effect the other way; inactive means flat fitted curve, though single readings scatter; tested in HEK293 cells; note: % is set by controls: 0 for no effect and ±100 for the full control effect; nearly all actives have a fitted effect of over 50% in size; luciferase read-out
Cruzain inh Det: inhibitors of Trypanosoma cruzi cruzain with detergent. Potency, µM, inactives show max response, negative = inhibition, hits mostly inhibitors. purified cruzain, Z-FR-AMC fluorescence, 0.01% Triton. AID 1478. P25779. hit rate 0.43% among 200,000;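 note: plate controls were neutral wells for no effect and buffer without enzyme for full effect; nearly all actives have a fitted effect of over 40% in size; top concentration of the series not given in the record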
Target sequence (P25779 123-467 limits assumed): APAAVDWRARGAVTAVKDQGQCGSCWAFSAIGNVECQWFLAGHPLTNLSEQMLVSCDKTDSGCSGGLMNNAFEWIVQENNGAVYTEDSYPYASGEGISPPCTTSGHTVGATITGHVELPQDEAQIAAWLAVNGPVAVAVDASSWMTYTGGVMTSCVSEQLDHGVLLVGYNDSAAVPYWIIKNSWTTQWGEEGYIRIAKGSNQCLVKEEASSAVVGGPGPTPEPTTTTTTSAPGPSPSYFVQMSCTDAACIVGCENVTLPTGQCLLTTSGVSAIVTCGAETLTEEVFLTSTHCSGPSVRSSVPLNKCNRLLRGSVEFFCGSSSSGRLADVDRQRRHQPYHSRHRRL
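Sodium acetate buffer (100 mM, pH 5.5) containing 5 mM DTT and 0.01% Triton X-100 hosted 1.5 nM cruzain and test compound for 15 min at room temperature. Cleavage of 2 uM Z-FR-AMC was then tracked by fluorescence.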
NS1 function inh: inhibitors of influenza NS1 protein function | Potency, µM (highest dose often 46.1 µM), without a hit: at the highest dose activity, positive = more growth | AID 2326 | hit rate 0.4% among 270,000 | S. cerevisiae slowed by influenza A NS1, growth recovery by OD600; active means well fitted rising curve with a large enough effect; inconclusive means small, poorly fitted or top-dose-only effect; inactive means no such curve, though single readings can be large or run the other way; note: nearly all actives have a fitted effect of over 50% in size
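A cell-based growth assay was used: compounds that relieve NS1-induced slow growth of budding yeast raise OD600. Assay medium was yeast nitrogen base with ammonium sulphate and -URA supplement, pH 6.0, with 2% galactose.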
SARS PLP yeast: inhibitors of SARS-CoV papain-like protease in yeast. S. cerevisiae expressing SARS-CoV PLpro, growth rescue; control for the full effect not named in the record. Potency, µM (highest dose often 32.9 µM), without a hit: at the highest dose activity, positive = growth rescue. hit rate 0.19% among 330,000. AID 485353; active means well fitted rising curve with a large enough effect; inconclusive means small, poorly fitted or top-dose-only effect; inactive means no such curve, though single readings can be large or run the other way; note: 0% is about no effect; nearly all actives have a fitted effect of over 55% in size; growth read by luminescence after 48 h
RE007 growth inh: less growth of the S. pombe RE007 Vpr strain; S. pombe RE007 Vpr strain, BacTiter-Glo ATP luminescence, 24 h; control for the full effect not named in the record; Potency, µM (top dose mostly 92.2 µM), for the others: at the highest dose activity change, negative = less growth; hit rate 0.21% among 360,000; active = well fitted falling curve with a large enough effect; inconclusive = small, poorly fitted or top-dose-only effect; inactive = no such curve, though single readings can be large or run the other way;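 note: % is set by controls: 0 for no effect and ±100 for the full control effect; nearly all actives have a fitted effect of over 50% in size; the assay follows cell death caused by Vpr and the record does not say whether a fall means rescue or toxicity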
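Fission yeast strain RE007, carrying one chromosomally integrated HIV-1 vpr copy, was seeded at OD 0.01 in PMG+AL medium with 23 nL pinned compound. After 24 h at 30 °C and 99% humidity, viability was read by BacTiter-Glo luminescence.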
Cruzain inh noDet: blocks cruzain activity in detergent-free assay. P25779. Potency, µM, for inactives: max response, negative = inhibition, hits mostly inhibitors. purified cruzain, Z-FR-AMC fluorescence, no detergent. hit rate 2.3% among 200,000;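 note: plate controls were enzyme without inhibitor for no effect and buffer without enzyme for full effect; nearly all actives have a fitted effect of over 40% in size; top concentration of the series not given in the record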
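Purified cruzain at 1.5 nM, pre-incubated 15 min with compound at room temperature in 100 mM sodium acetate pH 5.5, 5 mM DTT, 0.00005% Triton X-100. Reaction started with 2 uM Z-FR-AMC; AMC fluorescence increase over 60 s gives rate.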
MARV entry inh: Marburg virus entry inhibition. AID 540276. Marburg virus pseudotyped entry inhibition, cell reporter; control for the full effect not named in the record; about a third of the inactives were read at about 46 µM. hit rate 1.8% among 300,000. Potency, µM (series often up to 37.8 µM), for inactives: at the highest dose activity change, negative = inhibition, actives largely listed as inhibitors; active = well fitted inhibition curve with a large enough effect; inconclusive = small, poorly fitted or top-dose-only effect, or effect the other way; inactive = flat fitted curve, though single readings scatter; tested in HEK293 cells; about a fifth of its hits are not listed in these tables; note: % is set by controls: 0 for no effect and ±100 for the full control effect; luciferase read-out
StopGo reporter: FMDV 2A StopGo reporter, luciferase signal. human cells with a luciferase reporter of 2A StopGo recoding; control for the full effect not named in the record. Potency, µM (top dose mostly 57.9 µM), for the others: top-dose signal change, negative = less light. hit rate 1.2% among 410,000; active = well fitted falling curve with a large enough effect; inconclusive = small, poorly fitted or top-dose-only effect; inactive = no such curve, though single readings can be large or run the other way; tested in HEK293T cells; note: % is set by controls: 0 for no effect and ±100 for the full control effect; nearly all actives have a fitted effect of over 45% in size; luciferase light after 4 h
The depositor's hits bear a star; ? = inconclusive; . = not tested or not shown; & = joins results of further samples; [ ] = remark or other dose. Unless noted, calls come from the whole dose curve; as a rule, active = well fitted curve in the direction sought with a large enough effect; inconclusive = small, poorly fitted or top-dose-only effect, or another doubt; inactive = no such curve, though single readings can be large; an effect the other way counts as inactive or inconclusive. Potency is the fitted concentration of half-maximal effect.

SMILES | Lassa entry inh | Cruzain inh Det | NS1 function inh | SARS PLP yeast | RE007 growth inh | Cruzain inh noDet | MARV entry inh | StopGo reporter
O=C(CC12CC3CC(CC(C3)C1)C2)NC(=S)N1CCCCC1 | -6% | -1.2% | 6% | ? | -3% | -2% | 23% | 11%
CN(C)CCC(=O)N1C/C(=C/c2ccccc2)C(=O)/C(=C\c2ccccc2)C1 | ? | . | . | . | -6% | . | ? | 8.9µM*
O=C(NCC1CCCO1)c1ccc(N2CCCCC2)nc1 (stereo not drawn) | 23% | -2.8% | 1% | 3% | -8% | -5% | 23% | 71%[activator]
CCOc1ccccc1N1CCN(Cc2cnc(-c3ccccc3)[nH]2)CC1 | -3%[46.1 µM] | . | -5% | 4% | -16% | . | ? | 23%
O=C(Nc1ccc(N2CCOCC2)cc1)C1CCCN(S(=O)(=O)c2cccc(C(F)(F)F)c2)C1 (stereo not drawn) | -6% | -0.9% | 5% | 5% | -15% | 1% | 0%&-2% | 4%
COc1cccc(/C=N/Nc2ncnc(N)c2[N+](=O)[O-])c1OC | 8.2µM* | -6.5% | 4% | 2% | 2% | -8% | ? | -40%
Cc1cccc(-c2noc(CN(C)S(=O)(=O)c3cc(Cl)ccc3Cl)n2)c1 | 6% | 0.8% | -30% | -5% | -15% | 8% | -18% | ?
N#Cc1c(C(F)(F)F)cc(-c2ccc(Cl)cc2)nc1SCC(=O)O | 8% | . | -3% | 1% | 1% | . | -1% | -19%
O=C(OCC(=O)N1CCN(c2ccccc2)CC1)c1ccc(Cl)cc1[N+](=O)[O-] | 17% | . | . | -11% | -14% | . | 0% | -7%
COc1cccc(CNC(=O)c2c(C)nn(-c3ccc(F)cc3)c2-n2cccc2)c1 | -5%[46.1 µM] | -8.6% | . | . | . | 1% | . | ?
CN(CC(=O)Nc1ccc(Cl)c(C(F)(F)F)c1)C(=O)C1CC(=O)N(CCc2ccccc2)C1 (stereo not drawn) | 8% | . | . | 2% | -18% | . | ? | -28%
O=S(=O)(Nc1ccccn1)c1ccc(-n2cccn2)cc1 | . | . | -6% | 4% | 18% | . | . | 51%[activator]
O=S(=O)(Nc1cccnc1)c1ccc(F)cc1 | 4%[46.1 µM] | . | ? | 0% | 4% | . | 5%[46.1 µM] | -17%
COc1cccc(OC)c1C(=O)Nc1cc2c(cc1N1CCOCC1)n(C)c(=O)n2C | 6%[46.1 µM] | . | 0% | -4% | -2% | . | 22%[46.1 µM] | -16%
N/C(=N\OC(=O)c1cc(Br)ccc1Cl)c1ccccn1 | ? | . | . | 2% | -28% | . | ? | -9%
CCSc1nc2c(c(=O)[nH]1)C(c1cccs1)C(C(=O)OC)=C(C)N2 (stereo not drawn) | -6% | -0.5% | 20% | 23% | 0% | ? | 7% | 0%
O=C(CN1CCN(c2ccccc2F)CC1)Nc1cccnc1Cl | -4% | . | . | 0% | 8% | . | -10%[46.1 µM] | -8%
COc1ccc(C2C(C(=O)c3ccco3)=C(O)C(=O)N2CC2CCCO2)cc1OC (stereo not drawn) | 10%[46.1 µM] | . | ? | -1% | -5% | . | -10%[46.1 µM] | -9%
O=C(COc1ccc2c(-c3ccccc3)cc(=O)oc2c1)N[C@H](Cc1c[nH]c2ccccc12)C(=O)O | . | . | 11% | -1% | 6% | . | . | -7%
Fc1ccc(CCNCc2ccc(Br)cc2)cc1 | -10% | 0.4% | -11% | -8% | -3% | -1% | ? | -11%
CCn1c(COc2cccc(OC)c2)nnc1SCC(=O)Nc1ccccc1C(=O)OC | 7% | 0.2% | -13% | ? | 14% | 26% | ? | ?
COc1ccc(CNc2ncc(-c3ccc(F)cc3)n2C)cc1OC | . | . | 10% | 1% | -7% | . | . | -11%
CCCCCN(C(=O)CCC(=O)OCC(=O)N1CCC(C)CC1)c1c(N)n(CCCC)c(=O)[nH]c1=O | -3%[46.1 µM] | . | . | -7% | -22% | . | 22% | -8%
COc1nc(Nc2ccc(C(C)C)cc2)nc(OC)n1 | ? | -5.8% | -12% | ? | -23% | 4% | -10% | 9%
CC1CCCN(C(=O)C2CCN(S(=O)(=O)c3ccc4c(c3)CC(C)N4C(=O)C3CC3)CC2)C1 (stereo not drawn) | . | . | 7% | 1% | -8% | . | . | -2%

(cont.)
SMILES | Lassa entry inh | Cruzain inh Det | NS1 function inh | SARS PLP yeast | RE007 growth inh | Cruzain inh noDet | MARV entry inh | StopGo reporter
O=C(OCc1cc([N+](=O)[O-])cc2c1OCOC2)c1ccccn1 | -2% | . | -1% | 0% | 1% | . | 21% | -5%
COCCCNC(=O)/C(C#N)=C/c1c(N2CCN(c3ccc(OC)cc3)CC2)nc2c(C)cccn2c1=O | ? | . | -4% | -2% | -5% | . | -27% | 6%
COc1ccc(NC(=S)Nc2ccc(C)c(S(=O)(=O)N3CCCCC3)c2)cc1 | -4% | -13% | ? | 6% | . | 12% | 15µM* | .
CCOC(=O)C(=O)NC1CC=CCC1c1ccc2c(c1)OCO2 (stereo not drawn) | 2%[46.1 µM] | . | . | . | -2% | . | 29% | -20%
Cc1ccccc1C(=O)N1N=C(c2cccc(NS(C)(=O)=O)c2)CC1c1cccs1 (stereo not drawn) | . | . | 5% | 1% | 9% | . | . | -14%
Cc1cccc(-n2ncc3c(NCc4ccccn4)ncnc32)c1 | -2% | -0.3% | -33% | -15% | -5% | 4% | ? | 4%
C/C=C1\C(OC2OC(CO)C(O)C(O)C2O)OC=C(C(=O)OC)C1CC(=O)OCC1C(C)C(OC(=O)CC2C(C(=O)OC)=COC(OC3OC(CO)C(O)C(O)C3O)/C2=C\C)CC1C(CO)CO (stereo not drawn) | . | . | -2% | 1% | 11% | . | . | -6%
Cc1ccc2nc(C)/c(=N\O)c(C)nc2c1 | 10% | 2.4% | -30% | -5% | 7% | 0% | 2% | 35%[activator]
CCCn1c(=N)c(C(=O)NCC2CCCO2)cc2c(=O)n3cccc(C)c3nc21 (stereo not drawn) | 4% | 32µM* | -3% | 2% | -1% | ? | -26% | -10%
Cc1ccc(C(=O)c2c(NC(=O)c3cccnc3)sc3c2CCCC3)cc1 | 1% | -2.9% | 0% | -18% | -21% | 3% | 3% | -13%
CCOc1ccc(NC(=O)Cn2cc(C(=O)c3ccc(C)c(C)c3)c(=O)c3cc4c(cc32)OCCO4)cc1 | 0%[46.1 µM] | -2.8% | . | . | . | -3% | 0%[46.1 µM] | 10%
O=C(c1cccs1)N1CCCC(c2nc3c(nnn3Cc3ccccc3Cl)c(=O)[nH]2)C1 (stereo not drawn) | ? | . | 1% | 3% | 5% | . | 0%[46.1 µM] | 13%
COc1ccc(-c2cccc(NS(=O)(=O)c3cc(C)ccc3OC)c2)nn1 | -7%[46.1 µM] | -2.5% | . | . | . | 10% | . | 15%
CCOc1cccc2sc(=NC(=O)c3ccc(S(=O)(=O)N4CCOCC4)cc3)n(C)c12 | ? | -4.8% | 3% | 0% | -9% | -12% | ? | -2%&6%
CCC(CC)C(=O)c1c[nH]c(C(=O)N2CCN(c3ccccc3F)CC2)c1 | 4% | . | . | 1% | 0% | . | 2%[46.1 µM] | 13%
Cc1ccc(C)n1N1C(=O)/C(=C\c2ccc(Cl)cc2)SC1=S | ? | -5.6% | 26% | . | -3% | ? | ? | -27%
CCc1sc(N2C(=O)C3C4CCC(C4=C(C)C)C3C2=O)nc1-c1ccccc1 (stereo not drawn) | 36%[14.3 µM] | -0.8% | -3% | -18% | -29% | -1% | ? | 18%
Cc1cc(Nc2ccc([N+](=O)[O-])cc2)c2ccccc2n1 | . | . | -6% | -4% | -9% | . | . | -17%
CC(C)OCCCNC(=O)c1cc2c(s1)CS(=O)(=O)C2 | 25% | -4.5% | -11% | 3% | 3% | -7% | -2% | .
Cc1cc(C)c2nc(N3CCN(C(=O)c4ccco4)CC3)sc2c1 | 12% | . | . | -11% | -7% | . | ? | 30%[activator]
COc1ccc(N=Nc2c(C)[nH]c3ccccc23)cc1 | 16%[46.1 µM] | . | . | . | 7% | . | ? | 49%[activator]
COc1ccc(-n2ncc3c(NCCCN4CCOCC4)ncnc32)cc1 | ? | -5.0% | -8% | 1% | -2% | -6% | ? | 38%[activator]
N#Cc1cc2c(nc1SCC(=O)O)CCCCC2 | . | . | 5% | 1% | -4% | . | . | -5%
Cc1sc(N)nc1-c1cccs1 | 28% | -0.8% | 9% | -16% | ? | 0% | 0% | 9%
CC(C)Cn1c(-c2cccc(Br)c2)nc2ccccc21 | -8%[46.1 µM] | -8.7% | . | . | . | 7% | ? | ?

Later entries.
SMILES | Lassa entry inh | Cruzain inh Det | NS1 function inh | SARS PLP yeast | RE007 growth inh | Cruzain inh noDet | MARV entry inh | StopGo reporter
CCNC(=O)c1nn(-c2ccccc2C)nc1CO | 12%[46.1 µM] | 0.3% | . | . | . | 11% | 7%[46.1 µM] | -7%
CCN(CC)c1ccc(NC(=O)COC(=O)COc2ccccc2[N+](=O)[O-])cc1 | -5% | -3.6% | -19% | -17% | -14% | 0% | 16% | 0%
CCc1nnc(NC(=O)c2cc(S(=O)(=O)N3CCOCC3)ccc2N2CCCCC2)s1 | 0% | . | 1% | 1% | 38% | . | ? | 4%
COc1ccc(/C=N/NC(=O)c2ccncc2)cc1CN1CCCc2ccccc21 | -14% | . | . | 0% | -1% | . | -10% | ?
CN(C(=O)COC(=O)c1ccc(Cl)cc1N)C1CCS(=O)(=O)C1 (stereo not drawn) | -8% | -11% | 1% | 0% | 0% | -2% | 1% | -12%
CC(C)(C)OC(=O)N1CCC(c2c(C(=O)N3CCc4ccccc4C3)cnn2-c2ccc(F)cc2)CC1 | ? | -1.2% | . | . | . | 0% | . | ?
COc1cc(OC)cc(-c2nnc(SCC(=O)N3CCCC3)o2)c1 | ? | -2.2% | -3% | 5% | 1% | 24% | -1% | 5%
Cc1cc([N+](=O)[O-])nn1Cc1noc(C(=O)NCCCn2ccnc2)n1 | 13% | . | -7% | 0% | -2% | . | 1%[46.1 µM] | 2%
CCCN(CC(=O)Nc1ccccc1C)C(=O)c1ccc(OCc2c(C)noc2C)cc1 | -17% | . | . | 0% | 17% | . | 0% | -16%
CCc1nnc(NC(=O)CSCc2cc(=O)n3ccsc3n2)s1 | . | . | 9% | 27% | 17% | . | . | 2%

Compound activity from PubChem.
